High-throughput results: PubChem, several laboratories
UCH37 DUB inh: human UCH37 deubiquitinating enzyme inhibition; purified proteasome/UCH37, Ub-AMC cleavage fluorescence; inhibition, % (test concentration not listed); hit rate 0.33% among 330,000;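 active = mean of two replicates above 20%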;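 also: 0% = compound-free wells with enzyme and 100% = wells lacking proteasome; stock transfer was 100 nL into about 20 µL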
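assay system = human UCH37 enzyme supplied as purified proteasome complex | amount = proteasome at 0.15 nM in the dispensed enzyme solution | schedule = 30 min compound-proteasome preincubation then 25 min substrate reaction, room temperature | measured by = fluorescence, ex 355 nm, em 460 nm | benchmarks = no-proteasome wells (full inhibition) and compound-free wells (no inhibition)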
AF4-AF9 inh: inhibitors of human MLL-AF4/AF9 interaction; AlphaScreen, biotin-AF4 peptide binding to FLAG-AF9; inhibition, % at 10 µM; hit rate 0.47% among 350,000;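 active = every replicate reaching a set inhibition limit, whatever the replicate mean, cut at about 25% in these data; inconclusive = mean inhibition reaches that limit but some replicates miss it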;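 also: 0% = plate neutral control median and 100% = total signal loss; the record names both 10 and 1 µM as test concentration; the first replicate is given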
Target sequence (P42568 whole entry, looked up): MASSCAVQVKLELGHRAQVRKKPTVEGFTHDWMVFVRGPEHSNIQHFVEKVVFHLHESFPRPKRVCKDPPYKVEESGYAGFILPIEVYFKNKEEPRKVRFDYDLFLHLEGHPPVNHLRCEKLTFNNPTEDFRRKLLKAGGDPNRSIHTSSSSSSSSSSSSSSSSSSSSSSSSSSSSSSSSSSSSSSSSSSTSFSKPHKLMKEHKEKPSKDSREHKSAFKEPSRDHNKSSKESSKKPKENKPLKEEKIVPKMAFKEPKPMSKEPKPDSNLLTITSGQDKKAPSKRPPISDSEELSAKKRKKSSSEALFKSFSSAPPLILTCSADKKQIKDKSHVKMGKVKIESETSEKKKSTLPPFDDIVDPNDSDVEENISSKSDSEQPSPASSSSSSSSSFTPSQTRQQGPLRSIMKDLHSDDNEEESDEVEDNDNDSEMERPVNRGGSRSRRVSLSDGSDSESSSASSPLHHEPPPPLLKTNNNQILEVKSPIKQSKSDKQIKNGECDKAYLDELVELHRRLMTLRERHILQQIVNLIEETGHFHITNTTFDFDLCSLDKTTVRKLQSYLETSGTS
HNF4A DNA FP: change in binding of human HNF4 alpha to DNA; activity change, % at 10 µM; HNF4a-FITC DNA binding, fluorescence polarization, 1 h; hit rate 0.3% among 360,000; in the data active = activity change above about 30%, passing the limit was not always enough;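 also: controls were the assay level and a saturating level of protein; the project sought stronger binding though the title names inhibitors; some compounds called inactive have numbers as strong as hits; positive values seem to mean higher polarization but the record does not say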
Target sequence (P41235 whole entry, looked up): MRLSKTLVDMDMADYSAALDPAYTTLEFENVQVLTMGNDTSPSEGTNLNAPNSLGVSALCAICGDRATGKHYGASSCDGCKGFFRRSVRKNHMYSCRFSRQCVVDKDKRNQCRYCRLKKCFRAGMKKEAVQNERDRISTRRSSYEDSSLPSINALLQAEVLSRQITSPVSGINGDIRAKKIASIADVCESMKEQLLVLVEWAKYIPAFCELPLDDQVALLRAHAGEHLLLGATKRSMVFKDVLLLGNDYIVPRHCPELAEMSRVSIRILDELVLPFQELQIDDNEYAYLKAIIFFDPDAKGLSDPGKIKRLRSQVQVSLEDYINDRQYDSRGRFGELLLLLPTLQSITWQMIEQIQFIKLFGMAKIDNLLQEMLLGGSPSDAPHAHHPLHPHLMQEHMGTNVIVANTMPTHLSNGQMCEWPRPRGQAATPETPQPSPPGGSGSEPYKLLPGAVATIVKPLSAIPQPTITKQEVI
FGF22 binding: shifts melting point of recombinant human FGF22 | Q9HCT0 | calls only at 9.99 µM | recombinant FGF22 thermal shift, SYPRO orange fluorescence; percent of sucrose octasulfate shift, DMSO zero | hit rate 1.5% among 340,000;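 active = melting point raised past a set limit in the mean and every replicate; inconclusive = no clear call; three in four hits are not shown here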
RanGTP-Impb inh: disruptors of Ran-importin-beta complex formation – biochemical, FRET, CFP-Ran, YFP-importin-beta, homogeneous, primary screen | cell-free CFP-Ran/YFP-importin-beta FRET ratio | inhibition, % (no concentration beside the values) | hit rate 1.1% among 300,000;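 active = most replicates above 15%; inconclusive = exactly half above 15%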;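 also: 0% = DMSO wells and 100% = Ran loaded with GDP instead of GTP; wells of about 40 µL received 100 nL stock; the first replicate is given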
Vif A3G: inhibitors of Vif binding to APOBEC3G peptide, primary screen, biochemical, TR-FRET, GST-Vif 1-94, biotin-A3G peptide, dose response retest (AID 1117319). TR-FRET GST-Vif / biotin-A3G peptide binding; higher % means a stronger effect; test concentration not given here; strong numbers were not always called active. one-dose inhibition, %; IC50 in µM for titrated hits. hit rate 0.57% among 260,000;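 active = above the screen mean plus three standard deviations and confirmed in dose response; inconclusive = results disagree or hit not tested in dose response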;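 also: Vif residues 1-94 fused to GST binding biotinylated APOBEC3G peptide 110-148; 0% = full assay without inhibitor and 100% = GST in place of GST-Vif; retest series ran down from 100 µM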
Ecoli growth: E. coli growth inhibition; AID 1053175; OD600 absorbance (no concentration beside the values); hit rate 0.21% among 330,000; Escherichia coli growth, OD600, 23 h; hits give low values;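 active = OD600 absorbance below the run mean of sample wells minus 3.6 SD, in any replicate, cut at about 0.56 in these data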;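 also: stock transfer was 300 nL into about 60 µL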
The depositor's hits bear a star; i = inactive; ? = inconclusive; . = no result given. The list is partial (hit frequency here may not be typical).

SMILES | UCH37 DUB inh | AF4-AF9 inh | HNF4A DNA FP | FGF22 binding | RanGTP-Impb inh | Vif A3G | Ecoli growth
COc1ccc(C(=O)Nn2c(CC(C)C)nc3cc(OC)c(OC)cc3c2=O)c(OC)c1 | 1.3 | 3.0 | -0.2 | i | -1.3 | 25% | 0.69
CCc1ccc2[nH]c(=O)c(-c3ccccc3)c(O)c2c1 | 1.3 | 3.8 | -0.9 | i | -1.2 | . | 0.71
CC(C)(C)c1ccc(C(=O)Nc2ccc(CC(=O)O)cc2)o1 | 3.5 | . | -3.5 | . | -0.7 | 8% | 0.7
COc1ccc(S(=O)(=O)NC2CC(C)(C)NC(C)(C)C2)c2ccccc12 | 3.6 | -0.1 | -2.1 | i | 2.1 | . | 0.71
COc1ccc([N+](=O)[O-])cc1NC(=O)CSc1nc(C)cc(C)n1 | -0.8 | . | 3.6 | . | -1.7 | . | 0.71
Cc1ccc2[nH]c(=O)c(CN(Cc3ccccc3)Cc3nnnn3C3CCCC3)cc2c1 | -0.4 | . | 2.5 | . | 2.6 | ? | 0.66
O=C(/C=C\c1ccco1)Nc1ccc(N2CCN(C(=O)c3ccccc3)CC2)cc1 | 8.0 | . | 2.2 | . | 0.7 | -5% | 0.72
COc1cc2c(cc1OC)-c1c(OC)c(OC)cc3ccnc(c13)C2=O | . | 8.2 | 5.2 | i | -3.4 | . | .
CC(OC(=O)c1nn(C)c(=O)c2ccccc12)C(=O)NC1CCCCC1C (centres undefined) | -1.9 | 1.5 | -0.7 | i | -0.9 | -4% | 0.71
COc1ccc(C(=O)CSc2ccc(-c3ccccc3)nn2)cc1 | -1.8 | . | -0.2 | . | 6.2 | . | 0.7
O=C(O)c1ccccc1CSc1nnnn1-c1ccccc1 | 0.5 | -1.8 | -1.4 | i | -3.4 | -3% | 0.69
CCc1ccc(C(=O)C(C)OC(=O)c2nn(C)c(=O)c3ccccc23)cc1 (centres undefined) | 0.9 | -2.4 | 0.0 | i | 0.9 | 0% | 0.72
COc1cc2c(cc1O)[C@@H]1Cc3cc(O)c(OC)cc3[C@H](C2)N1C | -0.8 | . | -2.2 | i | -0.6 | -1% | .
Clc1ccc(-c2nnc(COc3ncnc4ccccc34)o2)cc1 | -0.4 | -1.2 | 3.2 | . | 1.1 | -11% | 0.7
CC1=NN(c2ccc(F)cc2)C(=O)C1C(c1cccc(O)c1)c1c(C)[nH]n(-c2ccc(F)cc2)c1=O (centres undefined) | 8.9 | . | -0.6 | . | 2.3 | 6% | 0.77
CC(C)c1ccc(Nc2ncccc2C(=O)O)cc1 | 5.6 | 1.5 | -8.8 | i | -2.4 | . | 0.66
O=C(CNC(=O)c1cccs1)c1ccc(Cl)cc1 | 4.1 | 4.5 | 0.2 | i | 0.2 | -3% | 0.61
COc1ccc(OC)c(NC(=O)CCN2CCN(c3ccccc3OC)CC2)c1 | 1.0 | 2.9 | -2.4 | i | 3.5 | . | 0.72
CCOc1ccc(NC(=O)CN(C)C(=O)c2cc([N+](=O)[O-])ccc2N2CCOCC2)cc1OCC | 6.9 | 0.6 | -1.1 | i | 2.8 | 3% | 0.68
COc1ccc(NC(=O)c2ccc3c(c2)OCO3)cc1 | 0.5 | -0.7 | -0.2 | i | 2.9 | 2% | 0.65
CC(C)(C)NC(=O)C[C@H]1C[C@H](C(=O)N2CCCCC2)[C@@]2(C)c3[nH]c4ccc(Cl)cc4c3CCN2C1=O | 3.1 | 2.2 | -0.8 | i | . | 7% | 0.68
CN(CCC#N)C(=O)COC(=O)[C@H](Cc1ccccc1)N1C(=O)c2ccccc2C1=O | 0.9 | -0.8 | -0.6 | i | -1.0 | -1% | 0.66
COc1ccc(/C=C/C(=O)NCC2COc3ccccc3O2)c(OC)c1 (centres undefined) | 0.1 | -3.5 | -0.8 | i | 6.5 | -5% | 0.69
Fc1ccc(-c2nc3ccc(Cl)cn3c2Cc2ccccc2)cc1 | . | -3.3 | -0.6 | i | . | -2% | .
CCOc1ccc(NC(=O)CCSc2nc3c(c(CC)c2C#N)C(=O)CC(C)(C)C3)cc1 | -3.0 | . | -2.4 | . | -1.1 | 3% | 0.76
COc1ccccc1-n1nnnc1SCC(=O)NC1CCCC1 | 4.6 | . | -0.7 | . | -1.5 | -1% | 0.76
C=C1C(=O)OC2C1CCC(C)=C1C(=O)C3OC3(C)C12 (centres undefined) | . | -4.9 | -0.9 | i | . | . | .
Cc1cc2oc(=O)cc(CN3CCCCC3C)c2cc1C (centres undefined) | -15 | 1.3 | 4.0 | i | -1.6 | . | 0.63
COc1cccc(NC(=O)CN(C)C(=O)C(Sc2ccccc2)c2ccccc2)c1 (centres undefined) | 2.0 | 0.3 | -3.8 | i | . | -4% | 0.62
CCN(CC(=O)NCc1cccs1)C(=O)/C=C/c1cccc(Cl)c1Cl | 5.6 | 0.0 | 4.3 | . | . | -4% | 0.66
CC(=O)NC1CCC(OC(=O)Nc2ccccc2)CC1 (centres undefined) | 4.0 | 2.3 | -0.4 | i | . | 8% | 0.67
O=C(NCCC1=CCCCC1)N[C@@H](Cc1ccccc1)C(=O)O | -4.5 | . | 0.5 | . | 0.7 | 30% | 0.75
CC(=O)OC[C@H]1O[C@@H](Oc2cc3ccc(=O)oc3cc2OC(C)=O)[C@H](OC(C)=O)[C@@H](OC(C)=O)[C@@H]1OC(C)=O | . | -0.6 | 0.2 | i | . | -6% | .
O=C(NCc1ccccc1)C1CCC1 | -0.2 | . | -2.0 | . | 6.7 | . | 0.71
Cc1cc(C)nc(Nc2cc([N+](=O)[O-])ccc2C)n1 | 0.4 | 6.0 | -0.7 | i | 5.6 | 12% | 0.66
O=C(COC(=O)CCCNC(=O)c1ccc(Cl)cc1)NC1CC1 | -1.9 | . | 5.2 | . | 10 | 10% | 0.71

Shown with each value named: 2 of the compounds above
molecule: Cc1cc(C)nc(Nc2cc([N+](=O)[O-])ccc2C)n1
  UCH37 DUB inh = 0.4; AF4-AF9 inh = 6.0; HNF4A DNA FP = -0.7; FGF22 binding = i; RanGTP-Impb inh = 5.6; Vif A3G = 12%; Ecoli growth = 0.66

molecule: O=C(COC(=O)CCCNC(=O)c1ccc(Cl)cc1)NC1CC1
  UCH37 DUB inh = -1.9; AF4-AF9 inh = .; HNF4A DNA FP = 5.2; FGF22 binding = .; RanGTP-Impb inh = 10; Vif A3G = 10%; Ecoli growth = 0.71

(more compounds)
SMILES | UCH37 DUB inh | AF4-AF9 inh | HNF4A DNA FP | FGF22 binding | RanGTP-Impb inh | Vif A3G | Ecoli growth
CCOP(=O)(c1ccc(N(C)C)cc1)C(O)c1ccc(Cl)cc1 (centres undefined) | 3.1 | . | -1.1 | . | . | 1% | 0.7
CCC(C)c1ccc(NC(=O)COC(=O)CCNC(=O)c2ccco2)cc1 (centres undefined) | 1.6 | -5.3 | 0.0 | i | . | . | 0.65
Cc1ccc(C(=O)CN2C(=O)C(=O)N(Cc3ccccc3)C2=O)cc1 | 1.1 | -2.0 | -3.7 | i | ? | 4% | 0.68
CN1C[C@@H]2[C@@H]3C(=O)N(Cc4ccccc4)C(=O)[C@@H]3[C@](Cc3ccccc3)(C1=O)N2C(=O)c1ccc(Cl)cc1 | 3.0 | 0.2 | 2.9 | i | . | . | .
CN1C(=O)/C(=C/c2ccccc2Cl)Sc2ccc(C(=O)NCc3cccnc3)cc21 | -7.2 | -9.3 | 1.0 | i | 4.0 | -3% | 0.67
O=C(/C=C/c1cccc([N+](=O)[O-])c1)N1CCN(c2ccccn2)CC1 | -2.7 | -1.1 | 1.3 | i | 2.2 | . | 0.69
O=S(=O)(Nc1cccc(S(=O)(=O)N2CCCC2)c1)c1cccc(Br)c1 | 0.2 | 0.5 | 2.4 | i | . | 10% | 0.68
COc1cccc(/C(C)=N/N=C(\C)c2cccc(OC)c2)c1 | . | 3.8 | -2.5 | i | ? | . | .
CC1CC1C(=O)OCC(=O)Nc1ccc2[nH]c(=O)[nH]c2c1 (centres undefined) | 7.2 | -2.9 | -4.2 | i | ? | . | 0.66
CCOC(=O)C1CCN(S(=O)(=O)c2csc(C(N)=O)c2)CC1 | 2.0 | 0.2 | 0.4 | i | -1.3 | -9% | 0.7
CC(CCc1ccccc1)NC(=O)CNC(=O)c1cccs1 (centres undefined) | 2.6 | -0.7 | -2.3 | i | -3.3 | . | 0.7
COc1cc([N+](=O)[O-])ccc1NC(=S)Nc1cc(C(=O)OC(C)C)cc(C(=O)OC(C)C)c1 | 7.4 | . | -1.9 | . | -1.2 | . | 0.68
O=C(NC1CCCC1)C1CC(=O)N(CCc2ccccc2)C1 (centres undefined) | -0.3 | . | 4.6 | . | 6.3 | 11% | 0.73
CC(=O)Nc1ccc(S(=O)(=O)N2CCCc3ccccc32)cc1 | 1.6 | . | -1.4 | . | 0.3 | -3% | 0.68
Cc1cccc(CNc2ccc(C(CC(N)=O)NC(=O)c3ccccc3)cc2[N+](=O)[O-])c1 (centres undefined) | 1.2 | -3.8 | 3.6 | i | -4.6 | . | 0.69
CCOc1cc(C(=O)O/N=C(\N)c2ccc([N+](=O)[O-])cc2)cc(OCC)c1OCC | 2.1 | . | -4.2 | . | 2.7 | 7% | 0.71
COC(=O)c1ccccc1NC(=O)c1ccc(-c2ccccc2F)o1 | -64 | . | 4.3 | . | -2.8 | 12% | 0.72
O=C(Nc1ccc(C(=O)O)cc1)/C(=C\c1ccc2c(c1)OCO2)NC(=O)c1ccc(Br)o1 | 12 | 1.8 | 3.5 | i | -0.1 | 15% | 0.7
CN(C)CCN(C(=O)c1ccc(S(=O)(=O)N(C)c2ccccc2)cc1)c1nc2ccc(Cl)cc2s1 | 1.9 | 2.0 | 0.4 | i | 1.3 | 2% | 0.67
C/C(=N\O)C(=O)NCC1CCNCC1 | . | . | -0.8 | . | 1.0 | 2% | .
O=C1SCCC1NS(=O)(=O)c1ccc([N+](=O)[O-])cc1 (centres undefined) | 3.5 | -4.5 | -1.1 | i | 3.4 | . | 0.72
O=C(Nc1ccc([N+](=O)[O-])cn1)C1CC2CCC1C2 (centres undefined) | 6.6 | . | -1.2 | . | -1.0 | 3% | 0.71
O=C(c1cccnc1)N1CCN(Cc2ccccc2Br)CC1 | 4.6 | . | 0.6 | . | -2.3 | 20% | 0.7
COc1ccc(C(=O)Nc2nnc(Cc3ccc(OC)c(OC)c3)s2)c(OC)c1 | 2.8 | -0.5 | 2.7 | i | -2.8 | . | 0.67
CC(=O)OCC1=C(C(=O)O)N2C(=O)[C@@H](NC(=O)Cc3ccccc3)[C@H]2SC1 | . | -11 | -3.1 | i | . | . | .
COc1ccc(Br)cc1/C=N/NC(=O)c1ccc2nc[nH]c2c1 | . | 0.3 | 1.1 | i | 4.5 | 2% | .
Cc1ccc(S(=O)(=O)Nc2ccc(NC(=O)/C=C/C(=O)O)cc2)cc1 | 6.0 | -1.5 | -3.2 | . | 3.2 | 15% | 0.71
COc1cccc(-c2cc(C(F)(F)F)n3nc(N)nc3n2)c1 | -55 | . | 0.2 | . | 3.4 | 32% | 0.78
COc1ccc(NS(=O)(=O)c2cc(NC(=O)c3cccs3)ccc2N2CCCC2)cc1 | 1.5 | 2.0 | -1.9 | i | 0.6 | . | 0.69
COc1nnc(-c2ccccc2)s1 | 2.7 | . | 3.3 | . | 0.1 | 3% | 0.67
O=C(COC(=O)c1ccccc1O)Nc1cc([N+](=O)[O-])ccc1Cl | -0.4 | . | -2.7 | i | 2.4 | 7% | 0.72
COc1ccc(OC)c(/C=N/NC(=O)c2ccc3nc[nH]c3c2)c1 | . | -1.1 | 4.5 | i | 8.8 | -5% | .
CCCn1c(-c2ccc(F)cc2)n[nH]c1=S | 0.1 | . | 0.5 | . | -1.8 | 29% | 0.74
